AmpC nodet inh = AmpC beta-lactamase inhibition, detergent-free assay; P00811; AmpC nitrocefin hydrolysis, absorbance 480 nm, no detergent; potencies from a single point are estimates; Potency, µM (doses to about 28.7 µM), inactives show top-dose activity change, negative = inhibition; hit rate 1.8% among 71,000; AID 585; active = falling curve, for most hits resting on a single point; inconclusive = weak or doubtful change; inactive = flat or rising curve; note: % of control where 0% means no effect; a quarter of the inactives give rising signals
Target sequence (P00811 whole entry, looked up): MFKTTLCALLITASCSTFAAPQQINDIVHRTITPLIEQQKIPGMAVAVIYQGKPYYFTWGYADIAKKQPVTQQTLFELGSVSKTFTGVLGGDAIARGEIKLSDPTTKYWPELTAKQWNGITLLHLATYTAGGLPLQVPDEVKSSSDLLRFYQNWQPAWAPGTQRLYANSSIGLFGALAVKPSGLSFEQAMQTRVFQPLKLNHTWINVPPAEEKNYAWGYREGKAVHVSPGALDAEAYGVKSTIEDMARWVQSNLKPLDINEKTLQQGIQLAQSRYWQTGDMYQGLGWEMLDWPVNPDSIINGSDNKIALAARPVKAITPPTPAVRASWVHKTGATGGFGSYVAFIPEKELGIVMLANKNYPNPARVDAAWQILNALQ
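AmpC in 20 mM phosphate buffer pH 7.0 was preincubated 15 min at room temperature with compounds. Nitrocefin (800 uM stock) was then added and hydrolysis followed at 480 nm every 20 s for 4 min.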
* = called active by the depositor; ? = inconclusive; & = joins results of further samples; [ ] = another dose, or the depositor's remark. Potency is the fitted concentration of half-maximal effect. Not all compounds are listed; count on the stated rates, not on these rows.

SMILES	AmpC nodet inh
Cc1cc(NCCN2CCOCC2)n2ncc(-c3ccccc3)c2n1	106%
CC(C)(C)C1=C[C@@H](CO)C[C@@H](CO)C1	1%
CCOC(=O)c1ccccc1NC(=O)CCNC(=O)Cn1cnc2ccccc2c1=O	52%
CCOC(=O)c1cc2n(n1)C(C(F)(F)F)CC(C)N2 (stereo unspecified)	0%
c1ccc(-c2noc(CSc3nc4ccccc4o3)n2)cc1	-13%
Cn1c(C(=O)OCC(=O)NCC2CCCO2)cc2sccc21 (stereo unspecified)	23%
Cc1cc(C)cc(OCc2nnc(SCC(=O)N3CCN(c4ccccc4)CC3)o2)c1	-16%
COc1cccc(C(=O)CSc2nc3ccccc3n2CC(=O)N2CCOCC2)c1	60%
Cc1ccc(S(=O)(=O)NC(C)(C)CSc2nncn2N)cc1	-1%
O=C(N1CCOCC1)N1c2ccccc2CC(N2CCOCC2)c2ccccc21 (stereo unspecified)	48%
COc1cc(C2C(C(N)=O)=C(C)Nc3nc(CCCO)nn32)cc(OC)c1OC (stereo unspecified)	4%
COc1cccc(OC)c1-c1nn2c(-c3cc(-c4ccccc4)n[nH]3)nnc2s1	30%
O=c1c(-c2ccc(Cl)cc2)nc2cnc(N3CCOCC3)nc2n1Cc1ccc(F)cc1	-1%
O=C(c1ccc(Cl)cc1)N1CCCOC1	-6%
C=CCn1c(SC2CCOC2=O)nc2scc(C3CC3)c2c1=O (stereo unspecified)	10%
c1nc(N2CCCCCC2)c2[nH]cnc2n1	4%
CC1CCN(C(=O)Cn2c(=O)n(CCc3ccccc3)c(=O)c3ccccc32)CC1	45%
CCOC(=O)C1CCCN(c2ncnc3c2oc2ccccc23)C1 (stereo unspecified)	69%
COC(=O)c1nnn(CC(=O)Nc2cc(Cl)ccc2C)c1C(=O)OC	3%
COc1ccc(N2CCN(C(=O)c3cccc(Cn4cc(Cl)cn4)c3)CC2)cc1	83%

Arranged by SMILES length (low to high): part of the list above
SMILES	AmpC nodet inh
COC(=O)c1nnn(CC(=O)Nc2cc(Cl)ccc2C)c1C(=O)OC	3%
COc1cccc(C(=O)CSc2nc3ccccc3n2CC(=O)N2CCOCC2)c1	60%
CCOC(=O)c1ccccc1NC(=O)CCNC(=O)Cn1cnc2ccccc2c1=O	52%

Next section:
SMILES	AmpC nodet inh
COc1ccccc1CNS(=O)(=O)c1ccc(NC(C)=O)cc1	-9%
Cc1cc(C)c(S(=O)(=O)N2CCN(C)CC2)c(C)c1	16%
O=C(c1ccco1)N1CCN(S(=O)(=O)c2ccc3c(c2)CCN3C(=O)C2CCC2)CC1	76%
CCCCOCCCNC(=O)c1c(-c2ccccc2)noc1C	26%
COCCN1C(=O)c2ccccc2C(C(=O)NCCCN2CCCC2)C1c1c[nH]c2ccccc12 (stereo unspecified)	4%
O=C1C(c2ccncc2)N(CCC2=CCCCC2)C(=O)CN1C1CCCCC1 (stereo unspecified)	108%
Cc1cc(NC(=O)C2CC(c3ccc(F)cc3)=NO2)no1 (stereo unspecified)	4µM*[single pt active]
Cc1noc(/C=C/N(C)C)c1S(=O)(=O)N1CCCC(C(=O)Nc2ccc3c(c2)OCO3)C1 (stereo unspecified)	43%
CCOC(=O)N1CCC(NC(=O)CCc2nc(C3=CCN(C)CC3)no2)CC1	38%
CC(C)(C)NC(=O)C1CN(S(=O)(=O)c2ccccc2)CCN1S(=O)(=O)c1ccccc1 (stereo unspecified)	12%
O=C(O)C1CC1c1ccc(Br)cc1 (stereo unspecified)	-1%
Cc1cc(C)c(S(=O)(=O)N2CCCCC2)c(C)c1-n1ncnn1	28%
O=S(=O)(c1ccc2c(c1)OCCO2)N1CCN(c2cccc(Cl)c2)CC1	-1%
CCCSC1=C(C#N)C(c2ccccc2OCC)CC(=O)N1 (stereo unspecified)	-2%
NC(=O)N/N=C\c1ccc([N+](=O)[O-])o1	1%[12.8 µM]
O=C(NCc1cccnc1)c1ccc(COc2ccccc2Br)o1	53%
NC(=O)CSc1nnnn1CC(CC(=O)O)c1ccccc1 (stereo unspecified)	15%
OCCSc1c(F)c(SCCO)c(SCCO)c(F)c1SCCO	17%
O=C(Nc1ccc(Cn2nnc3ccccc32)cc1)c1ccco1	-3%
O=C(O)c1cccc(S(=O)(=O)N2Cc3ccccc3C2)c1	-7%
O=C(O)C1C(c2ccccc2)C(C(=O)N2CCOCC2)C1c1ccccc1 (stereo unspecified)	4%
CC1CC(C)CN(CCCNC(=O)C2CCCN(c3nnc(N4CCCC4=O)s3)C2)C1 (stereo unspecified)	7%
CS(=O)(=O)c1ccc(Cl)c(C(=O)O)c1	7%
COc1ccc(OC)c(C2C(C(=O)Nc3cccnc3)=C(C)NC3=C2C(=O)CCC3)c1 (stereo unspecified)	-1%
C=CCn1c(CCC(=O)O)ccc1-c1ccc(OC)cc1	-4%
C=CCOC(=O)CCC(=O)Nc1cccc2ccccc12	9%
O=C(NCCN1CCOCC1)c1cc(-c2ccco2)on1	-12%
O=C(c1cccnc1)N1C2CCC1CC(O)(c1ccc(F)cc1)C2 (stereo unspecified)	14%
Brc1ccc(-c2nn3c(-c4ccco4)nnc3s2)o1	-13%
COCC(=O)N1CCC[C@@]2(CCN(C(=O)Nc3cccc(C#N)c3)C2)C1	-8%
COC(=O)[C@@]1(Cc2ccc(OC)cc2)[C@H]2c3cc(C(=O)N4CCCC4)n(CCn4cc([N+](=O)[O-])nc4C)c3C[C@H]2CN1C(=O)c1ccccc1	91%
Cc1nn(C)cc1CNC(=O)Nc1ccc(Br)cc1Cl	20%
O=C1C2CCCN2C(c2ccccc2F)N1c1cccc(Cl)c1 (stereo unspecified)	42%
O=C1CC(SCc2nc3ccccc3[nH]2)C(=O)N1c1ccc(F)cc1 (stereo unspecified)	-2%
CC(C)n1nnnc1SCC(=O)NCc1cccs1	-10%
NCCCNCCCCNCCCN	10%&-1%
CCOC(=O)C1CCN(C(=O)COc2ccc(Cl)cc2Cl)CC1	56%
c1ccc2c3c([nH]c2c1)-c1[nH]ncc1CC3	12%
O=C(Cn1ncc2c(=O)oc3ccccc3c21)NCC1CCCO1 (stereo unspecified)	4µM*[single pt active]
CC(=O)c1cc(-c2ccccc2)n(CCC(=O)NCc2cccs2)c1C	28%
COc1ccc(-c2cc(N)n(CCC#N)n2)c(OC)c1	10%
COc1ccc(-c2nnc(SCC(=O)N3CCCCC3)o2)c(OC)c1	72%
CCOC(=O)CNC(=O)CSc1ncnc2c1cnn2-c1ccc(OC)cc1	37%
Cc1oc(-c2ccc(Cl)cc2)cc1-c1nn2c(-c3ccco3)nnc2s1	21%
Cc1ccc(-c2cc(C(F)(F)F)n3nc(C(=O)N4CCCC4)cc3n2)cc1	3%
COC(=O)[C@@]1(Cc2ccc(F)cc2)[C@H]2c3cc(C(=O)N4CCCC4)n(CCc4ccc(O)c(O)c4)c3C[C@H]2CN1C(=O)c1ccccc1	165%
O=C(Cn1nnc2ccccc2c1=O)N1CCCc2ccccc21	10%
COc1ccc(OC)c(C(=O)COC(=O)c2c(OC)cccc2OC)c1	39%
COc1cccc(OCC(O)CN(CCO)Cc2ccccc2)c1 (stereo unspecified)	27%
COc1cc(C(=O)Nc2nc3ccccc3[nH]2)cc(OC)c1OC	26%
CSc1nc(NC(C)C)nc(N2CCOCC2)n1	11%
O=C(C1CCN(S(=O)(=O)c2cccs2)CC1)N1CCc2ccccc2C1	16%
O=S(=O)(c1ccccc1)N1CCC2(CCN(c3ncccn3)CC2)CC1	-6%
O=S(=O)(Nc1nc2ccccc2nc1NCC1CCCO1)c1cccs1 (stereo unspecified)	-11%
COc1ccccc1N1CCN(C(=O)c2cccc(N3C(=O)NC4CC3(C)Oc3ccccc34)c2)CC1 (stereo unspecified)	128%
COC(=O)c1[nH]c2cccc(OC)c2c1NC(=O)CCN1CC(C)CC(C)C1 (stereo unspecified)	-5%
Brc1ccc(-c2nc(-c3ccccc3)no2)o1	1%
CCOC(=O)CCn1cc(F)c(=O)n(Cc2ccccc2)c1=O	6%
COc1ccc(Cn2nnnc2C(C(C)C)N(Cc2ccco2)Cc2cccs2)cc1 (stereo unspecified)	-9%
c1ccc(-c2ccccc2OCCn2cncn2)cc1	31%

A section from the list above, for reference:
SMILES	AmpC nodet inh
O=C(C1CCN(S(=O)(=O)c2cccs2)CC1)N1CCc2ccccc2C1	16%
O=S(=O)(c1ccccc1)N1CCC2(CCN(c3ncccn3)CC2)CC1	-6%
O=S(=O)(Nc1nc2ccccc2nc1NCC1CCCO1)c1cccs1 (stereo unspecified)	-11%

Additional results
SMILES	AmpC nodet inh
CC(=O)Nc1ccc(Cc2ccncc2)cc1	-4%
CCCn1nnnc1SCC(=O)NCc1ccccc1	-7%
CN(CCNC(=O)c1cccc(N2CCCC2=O)c1)Cc1ccccc1	3%
COCCCNC(=O)CCc1nc2cccnc2n1Cc1ccccc1	2%
O=c1[nH]c(=S)[nH]c(-c2ccccc2)c1Cc1c(O)ccc2ccccc12	-12%[5.75 µM]
COCCNC(=O)CSc1nc2nc(C)cc(C)n2n1	-7%
COc1cccc(Nc2ncc3ncc(=O)n(Cc4cccs4)c3n2)c1	49%
CC(=O)NC(Cc1cc(C)ccc1C)C(=O)N1CCN(C(=O)Nc2ccc(C(C)=O)cc2)CC1 (stereo unspecified)	118%
CC(C)C(C(=O)NCC1CCCO1)N(Cc1ccco1)C(=O)CNS(=O)(=O)c1ccc(F)cc1 (stereo unspecified)	55%
CC1(C)CC(=O)c2c(-c3cccnc3)n[nH]c2C1	-6%
c1ccc(CN2COc3c(ccc4c5c(ccc34)CN(Cc3ccccc3)CO5)C2)cc1	7%[5.75 µM]
O=c1[nH]c(N2CCN(Cc3ccc4c(c3)OCO4)CC2)nc2c1CCC2	27%
O=c1oc(-c2cccs2)nc2scc(-c3cccs3)c12	?
C=CCn1c(N)nc2ccccc21	-12%
COC(=O)c1cc2nc(-c3ccccc3)cc(C)n2n1	-2%
Cc1cc(NC(=O)C2CCCN(S(=O)(=O)c3cnc[nH]3)C2)ccc1Br (stereo unspecified)	11%
O=C(Cc1cn2ccsc2n1)Nc1ccccn1	-9%
Cn1c(SCc2c(F)cccc2Cl)nnc1-c1cccs1	-8%
Cc1cc(C)nc(NS(=O)(=O)c2ccc(Br)cc2)n1	-14%
CCN(CC)C(=O)C(C)OC(=O)c1ccc(O)cc1 (stereo unspecified)	6%

Another view of some results above:
SMILES | AmpC nodet inh
COCCN1C(=O)c2ccccc2C(C(=O)NCCCN2CCCC2)C1c1c[nH]c2ccccc12 (stereo unspecified) | 4%
Brc1ccc(-c2nn3c(-c4ccco4)nnc3s2)o1 | -13%
CC1(C)CC(=O)c2c(-c3cccnc3)n[nH]c2C1 | -6%
Cc1nn(C)cc1CNC(=O)Nc1ccc(Br)cc1Cl | 20%

(listing goes on)
SMILES	AmpC nodet inh
CCOC(=O)c1c(C)[nH]c(C(=O)COC(=O)CSCC(=O)N(CC)CC)c1C	72%
Cn1c(CCNC(=O)c2ccco2)nc2cc(NS(=O)(=O)c3ccccc3)ccc21	0%
CCOC(=O)c1cc(C)n(-n2cnnc2)c1C	1%
C=CCN1CC(c2nc3ccccc3n2CCOc2ccccc2)CC1=O (stereo unspecified)	80%
COn1c(-n2nc(C)cc2C)nc2ccccc2c1=O	4%
Cn1c(N)nc2c(nc(OCc3ccccc3)n2[C@@H]2O[C@H](CO)[C@@H](O)[C@@H]2O)c1=O	-5%[5.75 µM]
COc1ccc(NC(=O)C2CC2)cc1-n1cnnn1	-5%
O=C(NC1CCCC1)C1CCCN1C(=O)Nc1ccccc1 (stereo unspecified)	-8%
COC(=O)C1CCN(C(=O)c2ccccc2Oc2ccccc2)CC1	35%
O=C(O)CN1C(=O)O[C@@H](c2ccccc2)C1=O	-8%[5.75 µM]
C=CCSC1=N/C(=C\c2ccc3c(c2)OCO3)C(=O)S1	4µM*
O=C(NCCc1ccccc1)c1cc2ncc(Br)cn2n1	-16%
Cc1cc(C)c(NC(=O)c2ccc(S(=O)(=O)N3CCOCC3)cc2)c(C)c1	22%
C=C1C[C@@]23C[C@]1(O)CC[C@@H]2[C@]12C=C[C@@H](O)[C@@](C)(C(=O)O1)[C@@H]2[C@@H]3C(=O)O	-8%
Cc1ccc(NC(=O)CN(C)c2ccc(S(=O)(=O)N3CCN(C)CC3)cn2)cc1	24%
c1ccc2nc(N3CCCC3)c(N3CCCC3)nc2c1	48%
CCCCC(=O)Nc1ccc(C(=O)Nc2ccc(S(=O)(=O)N3CCCC3)cc2)cc1	-10%
COc1cccc(Cn2c(=O)c(C)nc3cnc(OCc4ccccc4)nc32)c1	91%
O=C(CCC1CCCCC1)Nc1c2c(nn1-c1ccc(F)cc1)CS(=O)C2 (stereo unspecified)	66%
CCOCCCn1c(C)nc2c(c1=O)c1nc3ccccc3nc1n2CCC1=CCCCC1	153%

Source: PubChem
